SARS PLpro yeast: SARS-CoV PLP inhibition in yeast | S. cerevisiae expressing SARS-CoV PLpro, growth rescue; control for the full effect not named in the record | Potency, µM (highest dose often 32.9 µM), for the others: at the top dose activity, positive = growth rescue | 0.19% of 330,000 active; active means well fitted rising curve with a large enough effect; inconclusive means small, poorly fitted or top-dose-only effect; inactive means no such curve, though single readings can be large or run the other way; note: 0% is about no effect; nearly all actives have a fitted effect of over 55% in size; growth read by luminescence after 48 h
Cruzain Triton: blocks cruzain activity in presence of Triton detergent. purified cruzain, Z-FR-AMC fluorescence, 0.01% Triton. P25779. Potency, µM, without a hit: max response, negative = inhibition, usual class: inhibitors. 0.43% of 200,000 active. AID 1478;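 note: plate controls were neutral wells for no effect and buffer without enzyme for full effect; nearly all actives have a fitted effect of over 40% in size; top concentration of the series not given in the record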
Target sequence (P25779 123-467 limits assumed): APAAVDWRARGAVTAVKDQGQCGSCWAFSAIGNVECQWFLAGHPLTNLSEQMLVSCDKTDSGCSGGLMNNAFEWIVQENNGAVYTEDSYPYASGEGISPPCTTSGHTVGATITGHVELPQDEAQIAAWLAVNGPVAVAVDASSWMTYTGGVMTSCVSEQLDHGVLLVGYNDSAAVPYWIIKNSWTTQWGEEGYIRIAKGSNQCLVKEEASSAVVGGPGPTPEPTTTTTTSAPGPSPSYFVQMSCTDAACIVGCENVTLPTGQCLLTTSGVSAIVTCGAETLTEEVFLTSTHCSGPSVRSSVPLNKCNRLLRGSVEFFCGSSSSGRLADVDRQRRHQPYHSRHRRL
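Enzyme 1.5 nM, Z-FR-AMC 2 uM, NaOAc 100 mM pH 5.5, DTT 5 mM, Triton X-100 0.01%; 15 min RT compound preincubation; kinetic ex360/em450, 60 s delta.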
Lassa entry inh: blocks Lassa virus binding to or entry into cells; Lassa virus pseudotype entry inhibition, cell reporter; control for the full effect not named in the record; 1.2% of 300,000 active; Potency, µM (titrated, usually from 37.9 µM), for the others: at the highest dose activity change, negative = inhibition, most hits filed as inhibitors; active means well fitted inhibition curve with a large enough effect; inconclusive means small, poorly fitted or top-dose-only effect, or effect the other way; inactive means flat fitted curve, though single readings scatter; tested in HEK293 cells; note: % is set by controls: 0 for no effect and ±100 for the full control effect; nearly all actives have a fitted effect of over 50% in size; luciferase read-out
NS1 function inh: blocks influenza NS1 protein function; Potency, µM (highest dose often 46.1 µM), for inactives: at the top dose activity, positive = more growth; S. cerevisiae slowed by influenza A NS1, growth recovery by OD600; 0.4% of 270,000 active; active means well fitted rising curve with a large enough effect; inconclusive means small, poorly fitted or top-dose-only effect; inactive means no such curve, though single readings can be large or run the other way; note: nearly all actives have a fitted effect of over 50% in size
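S. cerevisiae expressing influenza A NS1, grown in glucose, washed, then diluted 1:100 into pH 6.0 -URA galactose medium with 23 nl compound. Growth recovery read as OD600; NS1-free strain serves as control.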
RE007 growth inh: less growth of the S. pombe RE007 Vpr strain | S. pombe RE007 Vpr strain, BacTiter-Glo ATP luminescence, 24 h; control for the full effect not named in the record | Potency, µM (series often up to 92.2 µM), for inactives: at the top dose activity change, negative = less growth | 0.21% of 360,000 active; active = well fitted falling curve with a large enough effect; inconclusive = small, poorly fitted or top-dose-only effect; inactive = no such curve, though single readings can be large or run the other way;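 note: % is set by controls: 0 for no effect and ±100 for the full control effect; nearly all actives have a fitted effect of over 50% in size; the assay follows cell death caused by Vpr and the record does not say whether a fall means rescue or toxicity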
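Fission yeast strain RE007, carrying one chromosomally integrated HIV-1 vpr copy, was seeded at OD 0.01 in PMG+AL medium with 23 nL pinned compound. After 24 h at 30 °C and 99% humidity, viability was read by BacTiter-Glo luminescence.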
Cruzain inh noDet: cruzain (T. cruzi) inhibition without detergent; P25779; purified cruzain, Z-FR-AMC fluorescence, no detergent; Potency, µM, for inactives: max response, negative = inhibition, actives largely listed as inhibitors; 2.3% of 200,000 active;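 note: plate controls were enzyme without inhibitor for no effect and buffer without enzyme for full effect; nearly all actives have a fitted effect of over 40% in size; top concentration of the series not given in the record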
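Purified cruzain at 1.5 nM, pre-incubated 15 min with compound at room temperature in 100 mM sodium acetate pH 5.5, 5 mM DTT, 0.00005% Triton X-100. Reaction started with 2 uM Z-FR-AMC; AMC fluorescence increase over 60 s gives rate.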
StopGo reporter: FMDV 2A StopGo reporter, luciferase signal; 1.2% of 410,000 active; human cells with a luciferase reporter of 2A StopGo recoding; control for the full effect not named in the record; Potency, µM (series often up to 57.9 µM), for the others: at the top dose signal change, negative = less light; active = well fitted falling curve with a large enough effect; inconclusive = small, poorly fitted or top-dose-only effect; inactive = no such curve, though single readings can be large or run the other way; tested in HEK293T cells; note: % is set by controls: 0 for no effect and ±100 for the full control effect; nearly all actives have a fitted effect of over 45% in size; luciferase light after 4 h
Marburg entry inh: Marburg virus entry inhibition; Marburg virus pseudotyped entry inhibition, cell reporter; control for the full effect not named in the record; about a third of the inactives were read at about 46 µM; Potency, µM (titrated, usually from 37.8 µM), for the others: at the top dose activity change, negative = inhibition, actives largely listed as inhibitors; 1.8% of 300,000 active; AID 540276; active = well fitted inhibition curve with a large enough effect; inconclusive = small, poorly fitted or top-dose-only effect, or effect the other way; inactive = flat fitted curve, though single readings scatter; tested in HEK293 cells; about a fifth of its hits are not listed in these tables; note: % is set by controls: 0 for no effect and ±100 for the full control effect; luciferase read-out
* = called active by the depositor; ? = inconclusive; · = no result given; & = joins results of further samples; [ ] = remark or other dose. Unless noted, calls come from the whole dose curve; as a rule, active = well fitted curve in the direction sought with a large enough effect; inconclusive = small, poorly fitted or top-dose-only effect, or another doubt; inactive = no such curve, though single readings can be large; an effect the other way counts as inactive or inconclusive. Potency is the fitted concentration of half-maximal effect.

#	compound	SARS PLpro yeast	Cruzain Triton	Lassa entry inh	NS1 function inh	RE007 growth inh	Cruzain inh noDet	StopGo reporter	Marburg entry inh
1	COc1cccc(-c2nnc3sc(-c4ccccc4)nn23)c1	-3%	-8.5%	-8%	-9%	2%	?	37%[activator]	18%&18%
2	O=[N+]([O-])c1ccc(O)c(CNCc2ccccc2)c1	·	·	1%	·	-22%	·	-24%	?
3	CCC(C)c1ccc(NC(=S)NCCn2cc(Cl)cn2)cc1 (stereo not given)	0%	·	?	-38%	-22%	·	16%	?
4	Cc1cc(C)nc(Nc2ccc(C(=O)O)cc2)n1	-4%	1.1%	25%	1%	3%	-1%	·	3%
5	CCN1CCN(c2ccc(S(=O)(=O)N3CCOCC3)cc2NC(=O)c2sccc2C)CC1	·	·	-9%	·	8%	·	-8%	8%
6	CC(C)Cn1c(SCC(=O)NC(=O)NC2CCCC2)nc2ccccc21	2%	-7.0%	-28%	-36%	15%	12%	?	?
7	CC(C)C(CCNC1CCN(C)CC1)c1ccc(Cl)cc1 (stereo not given)	-2%	·	·	-1%	18%	·	0%	·
8	CCCN1CCN(C(=O)c2ccccc2-c2nc3ccccc3s2)CC1	0%	·	·	·	-5%	·	-7%	·
9	O=C(O)COCC(=O)Nc1ccc(-n2nc(C(F)(F)F)cc2-c2cccs2)cc1	-3%	·	20%[46.1 µM]	2%	11%	·	-7%	8%[46.1 µM]
10	C=CCNS(=O)(=O)c1ccc(N2C(=O)c3ccccc3C2=O)cc1	-1%	·	4%	4%	-5%	·	1%	17%
11	CC(=O)N1C(=O)C2(C(C#N)=C(N)Oc3n[nH]c(-c4ccccn4)c32)c2ccccc21 (stereo not given)	-1%	-11%	-22%	13%	-2%	0%	-5%	-5%
12	Cc1cccc(C(=O)OCC(=O)c2c(N)n(CC(C)C)c(=O)n(C)c2=O)c1O	-8%	·	?	·	6%	·	-21%	?
13	O=C(COc1ccc(Cl)cc1)Nc1c(-c2cccs2)nc2ccccn12	8%	-4.9%	1%	-1%	-8%	10%	-15%	24%
14	O=C1CSC2(C(=O)N(Cc3ccccc3)c3ccccc32)N1c1ccc(Cl)cc1 (stereo not given)	·	-0.8%	-19%[46.1 µM]	·	·	2%	?	·
15	CCCCC1=CC2=CC(=O)C(C)(OC(=O)CC)C(=O)C2=CN1CCOC (stereo not given)	-3%	·	·	?	-16%	·	-20%	·
16	CCn1c(CCC(=O)Nc2nc3c(s2)CCCC3)nc2cc(S(=O)(=O)N(C)C)ccc21	?	-2.1%	-8%	?	-12%	?	1%	?

Next section; it opens with the three that closed the last part.
#	compound	SARS PLpro yeast	Cruzain Triton	Lassa entry inh	NS1 function inh	RE007 growth inh	Cruzain inh noDet	StopGo reporter	Marburg entry inh
14	O=C1CSC2(C(=O)N(Cc3ccccc3)c3ccccc32)N1c1ccc(Cl)cc1 (stereo not given)	·	-0.8%	-19%[46.1 µM]	·	·	2%	?	·
15	CCCCC1=CC2=CC(=O)C(C)(OC(=O)CC)C(=O)C2=CN1CCOC (stereo not given)	-3%	·	·	?	-16%	·	-20%	·
16	CCn1c(CCC(=O)Nc2nc3c(s2)CCCC3)nc2cc(S(=O)(=O)N(C)C)ccc21	?	-2.1%	-8%	?	-12%	?	1%	?
17	C=CCN1C(=O)NC(=O)/C(=C/c2cc3c4c(c2)CCCN4CCC3)C1=O	-3%	-6.9%	12%[46.1 µM]	?	-1%	6%	0%	-30%
18	CCc1ccc(S(=O)(=O)NCc2cccs2)cc1	1%	·	5%	-16%	-15%	·	84%[activator]	-7%
19	O=S(=O)(c1ccc2nc(N3CCN(c4ccc(F)cc4)CC3)ccc2c1)N1CCCCC1	0%	·	·	7%	-4%	·	?	·
20	Cc1ccccc1C(=O)NCc1nnc(SCC(=O)N2c3ccccc3Sc3ccccc32)n1C	-3%	-2.0%	?	5%	0%	7%	8%	?
21	Cc1nnc(SCC(=O)Nc2cccc(S(=O)(=O)NC3=NCCCCC3)c2)n1Cc1ccccc1	3%	·	2%	·	-12%	·	1%	5%
22	O=C(CCl)Nc1cc(SCC(O)CO)cc([N+](=O)[O-])c1 (stereo not given)	4%	·	?	-2%	0%	·	14µM*	?
23	Cc1sc(-c2ccccn2)nc1OC(=O)c1ccc(Cl)cc1	3%	0.1%	-5%	4%	?	-4%	11%	1%
24	CC(C)CNC(=O)c1ccccc1NC(=O)Nc1ccccc1	6%	-2.0%	-24%	-3%	2%	-7%	7%	-1%

For convenience, some entries already given.
#	compound	SARS PLpro yeast	Cruzain Triton	Lassa entry inh	NS1 function inh	RE007 growth inh	Cruzain inh noDet	StopGo reporter	Marburg entry inh
17	C=CCN1C(=O)NC(=O)/C(=C/c2cc3c4c(c2)CCCN4CCC3)C1=O	-3%	-6.9%	12%[46.1 µM]	?	-1%	6%	0%	-30%
18	CCc1ccc(S(=O)(=O)NCc2cccs2)cc1	1%	·	5%	-16%	-15%	·	84%[activator]	-7%
19	O=S(=O)(c1ccc2nc(N3CCN(c4ccc(F)cc4)CC3)ccc2c1)N1CCCCC1	0%	·	·	7%	-4%	·	?	·

The listing continues.
#	compound	SARS PLpro yeast	Cruzain Triton	Lassa entry inh	NS1 function inh	RE007 growth inh	Cruzain inh noDet	StopGo reporter	Marburg entry inh
25	COCCn1c(C)cc(O)c(C(c2ccc(F)cc2)N2CCN(c3ccccc3)CC2)c1=O (stereo not given)	·	2.0%	6%[46.1 µM]	·	·	-7%	-24%	·
26	CC(C)c1csc2nc3n(c(=O)c12)CCCCC3	-1%	·	-5%[46.1 µM]	-5%	-3%	·	-4%	?
27	CCCN(CCC)CCCNC(=O)Cn1ncc2c3ccccc3n(Cc3ccc(F)cc3)c2c1=O	·	-1.4%	-1%[46.1 µM]	·	·	-3%	-14%	-19%[46.1 µM]
28	COc1cccc(C(=O)OCC(=O)NCCNC(=O)COC(=O)c2cccc(OC)c2OC)c1OC	-2%	·	6%	-6%	-13%	·	-4%	11%
29	Cc1ccc(NC(=O)CCN2CCC(C(N)=O)CC2)cc1	7%	·	-5%[46.1 µM]	11%	122%	·	-4%	2%[46.1 µM]
30	COc1ccc(C2=NS(=O)(=O)N(C)C(C(=O)NCc3ccccc3)=C2)cc1OC	2%	-0.5%	3%[46.1 µM]	11%	-2%	9%	-23%&-13%	9%[46.1 µM]
31	CCOc1cc(/C=N/n2c(C)nc3ccccc3c2=O)ccc1O	4%	·	?	0%	28%	·	-13%	12%[46.1 µM]
32	Cc1ccc(OCC(=O)Nc2ccc(S(=O)(=O)N3CCOCC3)cc2)c(Br)c1	0%	·	?	-2%	-1%	·	?	14%
33	O=S1(=O)c2ccccc2C(O)(c2ccccc2)c2ccccc21	·	·	6%[46.1 µM]	·	4%	·	-3%	-1%[46.1 µM]
34	CC1CCCC(NC(=O)/C=C/c2c(F)cccc2Cl)C1C (stereo not given)	·	·	-11%[46.1 µM]	·	11%	·	45%[activator]	-1%[46.1 µM]
35	O=C(NCC(c1ccc2c(c1)OCO2)N1CCOCC1)C(=O)Nc1ccc(Cl)cc1 (stereo not given)	·	3.5%	3%[46.1 µM]	·	·	2%	-13%	·
36	CCCNC(=O)CSc1cn(CC(=O)N2CCCCCC2)c2ccccc12	·	-2.5%	·	·	·	-10%	1%	·
37	C/C(=N\NC(=O)c1cccnc1)c1cc(C)oc1C	-9%	-1.7%	?	3%	-5%	-11%	0%	4%
38	COC(=O)c1ccc(NC(=O)CSc2cn(CC(=O)N3CCCCC3)c3ccccc23)cc1	·	-5.5%	1%[46.1 µM]	·	·	0%	-4%	·
39	CCCn1c2ccccc2c2cnn(CC(=O)NCCCN3CCN(c4ccccc4)CC3)c(=O)c21	-8%	·	·	-8%	-3%	·	-13%	·
40	CCn1cc(CNC(=O)CSc2nc(-c3ccc(OC)c(OC)c3)cc(C(F)(F)F)n2)c(C)n1	-15%	-13%	?	-6%	6%	28%	-6%	2%
41	CCOC(=O)c1cc(-c2ccc(F)cc2)n(CCC(=O)Nc2nc3ccc(OC)cc3s2)c1C	·	-1.7%	-10%[46.1 µM]	·	·	-11%	?	·
42	CC(C)Oc1cccc(C(=O)N2CCCC2)c1	0%	·	5%[46.1 µM]	0%	9%	·	1%	13%[46.1 µM]
43	C=CCn1c(SCC(=O)Nc2cc(C)ccc2OC)nnc1-c1ccco1	?	-5.8%	-16%	-53%	29%	-2%	-3%	-21%
44	NS(=O)(=O)c1ccc(Sc2ccccn2)c([N+](=O)[O-])c1	0%	·	14%	3%	3%	·	-8%	-2%[46.1 µM]
45	Cc1ncsc1C(=O)Nc1nc2c(s1)CC(C)CC2 (stereo not given)	-11%	-5.5%	-19%	-62%	-21%	-1%	27%	?
46	CN(CC(=O)Nc1cccc(F)c1)C(=O)c1cc(-c2ccccc2)nc2ccccc12	-2%	·	-5%	·	-5%	·	-13%	?
47	CCN(C(=O)Cc1c(C(=O)O)n(C)c2ccccc12)c1cc(OC)ccc1OC	-1%	·	19%	-5%	23%	·	-7%	12%
48	O=C(Nc1cccc(Cl)c1)Nc1nnc(-c2ccccc2)o1	1%	3.6%	9%	3%	-3%	2%	-6%	18%[46.1 µM]
49	O=S1(=O)C=C(N2CCOCC2)c2ccccc21	0%	-4.2%	-6%	6%	-2%	0%	6%	19%
50	O=C(Cn1cc(S(=O)(=O)N2CCCC2)c(S(=O)(=O)N2CCCC2)c1)Nc1ccc(F)cc1	·	-0.6%	12%[46.1 µM]	·	·	4%	-11%	·
51	COc1cc(CN2CCN(c3cccc(C)c3C)CC2)cc(Br)c1O	0%	-1.8%	?	-7%	0%	-5%	0%	?
52	COC(=O)NC1CSCC1OC(=O)CCN1C(=O)c2ccccc2C1=O (stereo not given)	2%	-0.4%	13%	-1%	-7%	1%	-6%	0%
53	CCC(=O)Nc1c(C(=O)N2CCN(c3ccc(F)cc3)CC2)oc2ccccc12	·	-4.4%	20%[46.1 µM]	·	·	23%	60%[activator]	·
54	COC(=O)CSc1ncnc2c1sc1nc(N3CCOCC3)c3c(c12)CCCC3	15%	0.8%	8%	5%	4%	3%	-4%	9%

Bioassay records deposited in PubChem by National Center for Advancing Translational Sciences (NCATS).
